Bioassay records as filed in PubChem BioAssay.
2A StopGo – lowers the luciferase signal of an FMDV 2A StopGo reporter | AID 1159524 | human cells with a luciferase reporter of 2A StopGo recoding; control for the full effect not named in the record | 1.2% of 410,000 active | Potency, µM (top dose mostly 57.9 µM), for inactives: at the highest dose signal change, negative = less light; active = well fitted falling curve with a large enough effect; inconclusive = small, poorly fitted or top-dose-only effect; inactive = no such curve, though single readings can be large or run the other way; tested in HEK293T cells; also: % is scaled to controls: 0 for no effect and ±100 for the full control effect; nearly all actives have a fitted effect of over 45% in size; luciferase light after 4 h
SARS PLP yeast – inhibitors of SARS-CoV papain-like protease in yeast | AID 485353 | 0.19% of 330,000 active | S. cerevisiae expressing SARS-CoV PLpro, growth rescue; control for the full effect not named in the record | Potency, µM (series often up to 32.9 µM), for the others: at the highest dose activity, positive = growth rescue; active means well fitted rising curve with a large enough effect; inconclusive means small, poorly fitted or top-dose-only effect; inactive means no such curve, though single readings can be large or run the other way; also: 0% is about no effect; nearly all actives have a fitted effect of over 55% in size; growth read by luminescence after 48 h
NS1 function inh – inhibitors of influenza NS1 protein function; S. cerevisiae slowed by influenza A NS1, growth recovery by OD600; Potency, µM (top dose mostly 46.1 µM), without a hit: at the highest dose activity, positive = more growth; 0.4% of 270,000 active; active means well fitted rising curve with a large enough effect; inconclusive means small, poorly fitted or top-dose-only effect; inactive means no such curve, though single readings can be large or run the other way; also: nearly all actives have a fitted effect of over 50% in size
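Read-out: OD600 growth recovery of NS1-expressing budding yeast. Cells grown overnight at 30C in -URA glucose medium, washed, resuspended and diluted 1:100 in 2% galactose assay medium, pH 6.0. Same strain lacking NS1 served as positive control.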
Cruzain inh noDet – cruzain (T. cruzi) inhibition without detergent. P25779. purified cruzain, Z-FR-AMC fluorescence, no detergent. Potency, µM, inactives show max response, negative = inhibition, most hits filed as inhibitors. 2.3% of 200,000 active. AID 1476;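 also: plate controls were enzyme without inhibitor for no effect and buffer without enzyme for full effect; nearly all actives have a fitted effect of over 40% in size; top concentration of the series not given in the record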
Target sequence (P25779 123-467 limits assumed): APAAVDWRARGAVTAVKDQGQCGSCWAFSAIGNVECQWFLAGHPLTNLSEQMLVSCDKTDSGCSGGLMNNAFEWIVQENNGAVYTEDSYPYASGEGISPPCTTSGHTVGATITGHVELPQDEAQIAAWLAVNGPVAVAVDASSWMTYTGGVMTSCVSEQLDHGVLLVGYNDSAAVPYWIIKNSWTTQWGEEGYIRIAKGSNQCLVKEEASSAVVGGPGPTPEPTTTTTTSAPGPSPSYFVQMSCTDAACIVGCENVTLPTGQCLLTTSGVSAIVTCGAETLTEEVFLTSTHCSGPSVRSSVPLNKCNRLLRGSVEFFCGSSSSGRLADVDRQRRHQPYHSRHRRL
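Purified cruzain at 1.5 nM, pre-incubated 15 min with compound at room temperature in 100 mM sodium acetate pH 5.5, 5 mM DTT, 0.00005% Triton X-100. Reaction started with 2 uM Z-FR-AMC; AMC fluorescence increase over 60 s gives rate.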
Cruzain Triton – blocks cruzain activity in presence of Triton detergent; purified cruzain, Z-FR-AMC fluorescence, 0.01% Triton; Potency, µM, inactives show max response, negative = inhibition, most hits filed as inhibitors; 0.43% of 200,000 active;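 also: plate controls were neutral wells for no effect and buffer without enzyme for full effect; nearly all actives have a fitted effect of over 40% in size; top concentration of the series not given in the record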
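15 min RT preincubation of 1.5 nM cruzain with compound, then 2 uM Z-FR-AMC added; kinetic AMC fluorescence, 60 s delta. Triton X-100 0.01%, pH 5.5.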
RE007 growth inh – less growth of the S. pombe RE007 Vpr strain. S. pombe RE007 Vpr strain, BacTiter-Glo ATP luminescence, 24 h; control for the full effect not named in the record. Potency, µM (doses to about 92.2 µM), without a hit: at the highest dose activity change, negative = less growth. 0.21% of 360,000 active. AID 651644; active = well fitted falling curve with a large enough effect; inconclusive = small, poorly fitted or top-dose-only effect; inactive = no such curve, though single readings can be large or run the other way;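 also: % is scaled to controls: 0 for no effect and ±100 for the full control effect; nearly all actives have a fitted effect of over 50% in size; the assay follows cell death caused by Vpr and the record does not say whether a fall means rescue or toxicity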
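Fission yeast RE007 carrying one integrated HIV-1 vpr copy, seeded at OD 0.01 in PMG+AL medium with 23 nL pinned compound. Grown 24 h at 30 degrees; viability read by BacTiter-Glo luminescence after 5 min.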
MARV entry inh – inhibitors of Marburg virus binding or cell entry | Marburg virus pseudotyped entry inhibition, cell reporter; control for the full effect not named in the record; about a third of the inactives were read at about 46 µM | Potency, µM (titrated, usually from 37.8 µM), for inactives: at the highest dose activity change, negative = inhibition, most hits filed as inhibitors | 1.8% of 300,000 active; active = well fitted inhibition curve with a large enough effect; inconclusive = small, poorly fitted or top-dose-only effect, or effect the other way; inactive = flat fitted curve, though single readings scatter; tested in HEK293 cells; about a fifth of its hits are not listed in these tables; also: % is scaled to controls: 0 for no effect and ±100 for the full control effect; luciferase read-out
LASV entry inh – blocks Lassa virus binding to or entry into cells. 1.2% of 300,000 active. Lassa virus pseudotype entry inhibition, cell reporter; control for the full effect not named in the record. Potency, µM (highest dose often 37.9 µM), without a hit: at the highest dose activity change, negative = inhibition, most hits filed as inhibitors; active means well fitted inhibition curve with a large enough effect; inconclusive means small, poorly fitted or top-dose-only effect, or effect the other way; inactive means flat fitted curve, though single readings scatter; tested in HEK293 cells; also: % is scaled to controls: 0 for no effect and ±100 for the full control effect; nearly all actives have a fitted effect of over 50% in size; luciferase read-out
* = called active by the depositor; ? = inconclusive; . = not tested or not shown; & = joins results of further samples; [ ] = remark or other dose. Unless noted, calls follow the shape of the dose curve; as a rule, active = well fitted curve in the direction sought with a large enough effect; inconclusive = small, poorly fitted or top-dose-only effect, or another doubt; inactive = no such curve, though single readings can be large; an effect the other way counts as inactive or inconclusive. Potency is read from the fitted curve at half-maximal effect. No enrichment for hits. About 4.7% of those tested had a hit in this group.

SMILES	2A StopGo	SARS PLP yeast	NS1 function inh	Cruzain inh noDet	Cruzain Triton	RE007 growth inh	MARV entry inh	LASV entry inh
Cc1ccnn2c(-c3ccccc3)c3c(=O)n(C)c(=O)n(C)c3c12	.	-4%	2%	-3%	4.0%	.	-1%	.
CCOc1ccc(NC(=O)CSc2ncc3c(n2)-c2ccc(Cl)cc2N(Cc2ccccc2)S3(=O)=O)cc1	-19%	.	.	-14%	1.7%	.	.	18%[46.1 µM]
CC1(C)OC2CC3C4CCC5=CC(=O)CCC5(C)C4(F)C(O)CC3(C)C2(C(=O)CO)O1 (stereo unspecified)	-4%	.	.	.	.	41%	9%[46.1 µM]	7%[46.1 µM]
COc1ccc(CCNCc2ccc3c(c2)n(C)c(=O)n3C)cc1OC	0%	.	.	-1%	5.9%	.	-11%[46.1 µM]	-11%[46.1 µM]
CCCN(CCC)C(=O)Cn1c(=O)n(CCCCC(=O)NCc2ccco2)c(=O)c2ccccc21	10%	5%	-6%	-5%	0.2%	-1%	-8%[46.1 µM]	-26%
Cc1noc(C)c1C(=O)OC(C(=O)NC1CCCC1)c1ccc(F)cc1 (stereo unspecified)	1%	4%	-11%	7%	3.5%	12%	-19%	-3%
S=C(Nc1ccc2cn[nH]c2c1)Nc1ccccc1Cl	51%[activator]	?	-4%	-16%	-4.7%	-3%	-9%	?
CCCCNC(=O)Nc1ccccn1	5%	18%	-18%	2%	1.6%	17%	9%	?
O=C(O)c1cccc(Cn2c(Cl)c(/C=N/NC(=O)c3ccc(O)cc3)sc2=O)c1	-2%	0%	7%	.	.	-2%	-6%[46.1 µM]	-10%
CCCC(=O)Nc1cc(C(=O)NCc2ccccc2)ccc1S(=O)(=O)c1ccc(Cl)cc1	-6%	.	.	-6%	-5.6%	.	.	7%[46.1 µM]
CC1CCN(S(=O)(=O)c2ccc(NC(=O)Cc3cccs3)cc2)CC1	23%	-4%	11%	-6%	-24%	0%	-26%	2%
Cn1nc(C(C)(C)C)c(NC(=O)c2cccs2)c1C(C)(C)C	-1%	0%	0%	.	.	-3%	1%	-7%
CC(C)c1ccc(NC(=O)c2cc([N+](=O)[O-])ccc2N2CCOCC2)cc1	-25%	1%	10%	.	.	3%	.	.
COc1ccc(CN(C)Cc2cc(=O)oc3cc(C)c(C(C)C)cc23)cc1OC	?	-1%	-24%	.	.	-9%	?	?
Cc1ccc(NC(C)C(=O)N/N=C/c2ccc([N+](=O)[O-])s2)cc1 (stereo unspecified)	-4%	-12%	-2%	.	.	-18%	?	?
COc1ccc(-c2nnc3n2C(C)(C)Cc2cc(OC)c(OC)cc2-3)cc1	.	?	4%	4%	6.2%	.	1%	.
c1ccc(SCCCCNC2CCCC2)cc1	-19%	-31%	5%	4%	-1.6%	4%	-9%	?
COc1cc(/C=C/C(=O)OCC(=O)Nc2cc(S(=O)(=O)N3CCCC3)ccc2Cl)cc(OC)c1OC	-8%	-4%	.	.	.	4%	-6%	?
COCCCNC(=O)CCNS(=O)(=O)c1ccc(C)cc1	-14%	6%	-11%	2%	2.1%	8%	0%	3%
CC1CN(Cc2nc3c(c(=O)n(C)c(=O)n3C)n2CCc2ccccc2)CC(C)O1 (stereo unspecified)	0%	.	-10%	.	.	-5%	1%[46.1 µM]	-1%
O=C(CN1C(=O)COc2ccc(Cl)cc21)Nc1nccs1	6%	-17%	.	.	.	-1%	?	3%
COc1ccc(S(=O)(=O)N2CCCCCC2)cc1C(=O)OCC(=O)NC(N)=O	13%	-5%	1%	-20%	-5.3%	-2%	-3%	1%
CCC(C)(C)NC(=O)Cn1c(=O)ccc2cc(S(=O)(=O)N3CCC(C)CC3)ccc21	?	.	.	0%	-2.5%	.	.	16%[46.1 µM]
CC(C)COc1ccc(C(=O)OCCN2CCOCC2)c(O)c1	0%	-4%	-7%	3%	3.3%	-22%	0%[46.1 µM]	-2%
Cc1ccc(N2CCN(S(=O)(=O)c3ccc4[nH]c5c(c4c3)CCCCC5)CC2)c(C)c1	-15%	.	.	3.2µM*	3.4%	.	.	28%[46.1 µM]
COc1ccc(-c2c3c(=O)n(C)c(=O)n(C)c3c3c(-c4ccccc4)nc4ccccc4n23)cc1	?	.	.	10%	-0.9%	.	8%[46.1 µM]	15%[46.1 µM]
NS(=O)(=O)c1cccc(NC(=O)c2cccc3c(Br)cccc23)c1	-8%	-2%	12%	.	.	-9%	.	.
Cc1cc(C)nc(SC(C)C(=O)N/N=C/c2cccs2)n1 (stereo unspecified)	.	-1%	1%	4%	1.5%	3%	3%	-1%
COc1ccccc1N(CC(=O)NC1CCCCC1)C(=O)Cn1nnc(-c2ccc(C)o2)n1	-2%	8%	11%	.	.	2%	7%[46.1 µM]	.
O=C(OCC(=O)N1CCCCCC1)c1ccc(Br)c(S(=O)(=O)N2CCOCC2)c1	?	0%	.	.	.	-12%	-2%	5%
COc1ccccc1N1CCN(S(=O)(=O)CCNC(=O)c2ccc(Br)o2)CC1	-28%	-3%	-4%	.	.	-3%	.	.
CCCc1cc(=O)oc2c3c(cc(OCC(=O)NCc4ccncc4)c12)OC(C)(C)CC3	?	-3%	-51%	.	.	-21%	.	.
CCCCn1c(N)c(N(CC)C(=O)c2cccc(S(=O)(=O)N3CCCc4ccccc43)c2)c(=O)[nH]c1=O	-4%	?	.	.	.	-19%	-1%	6%
OC(CNCCc1ccc(Cl)cc1)COCc1ccco1 (stereo unspecified)	0%	-3%	-2%	-21%	1.3%	-10%	-6%	17%
Cc1ccc2nc(N(Cc3cccnc3)C(=O)CCc3ccccc3)sc2c1	12%	.	.	17%	-5.0%	.	.	0%[46.1 µM]
COc1ccc2cc(C(=O)c3ccccc3)c(=O)oc2c1	.	-2%	-99%	2%	-1.5%	-18%	?	?
COc1ccc(CC(C)N2CCN(Cc3ccccc3)CC2)cc1OC (stereo unspecified)	5%	-2%	-3%	.	.	20%	?	9%[46.1 µM]
COc1ccccc1NC(=O)N[C@@H](Cc1c[nH]c2ccccc12)C(=O)NN	-15%	0%	6%	.	.	7%	1%[46.1 µM]	-20%[46.1 µM]
COc1ccc(Nc2ncc(C#N)c(N)n2)c(OC)c1	29%	-2%	-33%	.	.	-3%	-6%&-6%	14%
CCn1c(=O)c(C(=O)NC(C)C)c(O)c2ccccc21	.	-6%	-5%	7%	-5.2%	-20%	0%	?
Cc1cc(C)n2c(Nc3ccc4c(c3)OCCO4)c(-c3ccccc3)nc2n1	25%&20%	-11%	-7%	5%&-12%	-4.9%&-6.9%	?	?	-18%[46.1 µM]
CCn1c(CC(=O)Nc2ccccc2C)nnc1SCC(=O)NC1CCCC1	6%	1%	-8%	.	.	-5%	0%[46.1 µM]	-7%[46.1 µM]
COc1ccc(-c2csc(/C=C/c3ccc4c(c3)OCO4)n2)cc1OC	-3%	-2%	9%	?	-2.1%	-3%	14%	4%
COc1ccc(NC(=S)N2N=CCC2c2ccccc2)cc1 (stereo unspecified)	38%[activator]	3%	4%	-8%	4.8%	15%	?	?
COc1ccc(C(CNC(=O)c2cccc(NS(=O)(=O)c3ccc(C)c(F)c3)c2)N2CCOCC2)cc1 (stereo unspecified)	11%	-1%	.	.	.	2%	?	1%
CCOc1cc(C(=S)N2CCCC2)ccc1OCc1ccccc1	9%	-2%	-32%	.	.	5%	-5%	?
Cn1c(=O)[nH]c(=O)c2c1ncn2CCCc1ccccc1	-5%	1%	-8%	23%	5.5%	-7%	0%	4%
CC(C)c1c(C(=O)N/N=C/c2c[nH]c3ccccc23)nnn1-c1nonc1N	?	10%	9%	.	.	3%	.	.
O=C(NCCc1c[nH]c2ccccc12)c1ccc2[nH]c(=O)c(=O)[nH]c2c1	11%	-1%	2%	.	.	13%	-12%	-1%
Nc1ccc(S(=O)(=O)NC2(C(F)(F)F)NC(=O)N(c3ccc(F)cc3)C2=O)cc1 (stereo unspecified)	36%[activator]	-3%	1%	.	.	39%	8%[46.1 µM]	14%[46.1 µM]
Cn1cc(S(=O)(=O)N2CCCCCC2)cc1C(=O)N1CCN(c2cccc(Cl)c2)CC1	0%	.	.	?	-16%	.	.	-22%[46.1 µM]
COc1ccc(NC(=O)COC(=O)COc2cccc3c2OC(C)(C)C3)cc1	-21%	-5%	.	.	.	2%	6%	0%
CCc1cc2ccccc2nc1SCC(=O)NC1CCCC1	-19%	-2%	-22%	.	.	6%	?	14%[46.1 µM]
CCOC(=O)C1CCN(S(=O)(=O)c2cc(-c3cc(C)no3)ccc2OC)CC1	-13%	.	.	5%	1.3%	.	.	14%[46.1 µM]
CCc1nnc(NC(=O)c2cc(-c3ccc(C)o3)nc3ccccc23)s1	-13%	-1%	.	.	.	-4%	?	21%
COc1ccc(OC)c(-c2nnc(NC(=O)C(C)Sc3nncn3C)s2)c1 (stereo unspecified)	-4%	-1%	-2%	4%	5.3%	6%	.	.
CCn1ccc2cc(S(=O)(=O)N3CCC(C(=O)NCc4ccc(F)cc4)CC3)ccc21	-22%	.	.	?	-4.1%	.	.	-7%[46.1 µM]
CCc1ccc2oc(C(=O)N3CCN(C)CC3)cc(=O)c2c1	-7%	-2%	4%	.	.	3%	.	.
O=C(c1cccc(N2C(=O)C3CC=CCC3C2=O)c1)N1CCCCCC1 (stereo unspecified)	9%	8%	6%	3%	6.2%	-6%	14%&0%	-9%
Cn1c(/C(C#N)=C/c2cccc(O)c2)nc2ccccc21	8%	-1%	-7%	.	.	-13%	?	-8%

(list continues)
SMILES	2A StopGo	SARS PLP yeast	NS1 function inh	Cruzain inh noDet	Cruzain Triton	RE007 growth inh	MARV entry inh	LASV entry inh
Cc1ccc(/C=C/C(=O)Nc2nnc(C)s2)o1	36%[activator]	3%	0%	-16%	-9.2%	1%	25%	19%
COc1cccc(Cn2c(=O)oc3ccccc32)c1	26%	-3%	1%	.	.	27%	?	?
CSCCC(NC(=O)c1cc(C)oc1C)C(=O)O (stereo unspecified)	-7%	6%	4%	-6%	-0.1%	-6%[3.69 µM]	18%	19%
COc1cc(OC)cc(C(=O)NCCCCNC(=O)c2cc(OC)cc(OC)c2)c1	12%	.	.	.	.	8%	-8%[14.2 µM]	0%
CCCNC(=O)CCC(=O)Nc1ncc(-c2ccc(C)cc2)n1C	31%[activator]	1%	-15%	0%	2.8%	-22%	1%	-19%
COCC(=O)Nc1cc(C(=O)NCC(C)C)ccc1Cl	-12%	23%	11%	-1%	0.6%	-1%	-2%	-4%
